# Methyltransferases = Primary Screen for Target Class Profiling of Small Molecule Inhibitors of Methyltransferases; hit rate 3.9% among 25,000; purified enzyme, MTase-Glo SAH luminescence; stronger effect = lower value; calls only at 40 µM; AID 1745853, 2022; active = -50% or lower on at least one of six enzymes; inconclusive = the cases between; inactive = as a rule above -30% on all six;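 note: enzymes were COMT GAMT GNMT HNMT NNMT and PNMT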
#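 Each enzyme was reacted with SAM and its substrate, with compounds tested once at 40 uM; SAH formed was read by MTase-Glo luminescence.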
# Calls only; i = inactive; ? = inconclusive; + = active, no number. % is set by controls: 0 for no effect and ±100 for the full control effect. A portion of the library (hit frequency here may not be typical).
SMILES,Methyltransferases
CC1=NOC2(CCN(Cc3ccc(N(C)C)cc3)CC2)C1,i
c1cc(OCCCN2CCCCC2)ccc1CN1CCCCC1,+
CC(=O)Nc1ccc(Nc2nc3c(S(=O)(=O)c4ccc(C(C)C)cc4)nnn3c3ccccc23)cc1,i
CCCC1c2ccc(C)n2CCN1C(=O)Nc1ccccc1C (centres undefined),i
CCOc1cc2c(cn1)NCCN(Cc1ccncc1Cl)C2,i
O=C1CCCN1c1ccc(CN2CC(=O)N(Cc3ccccc3)c3ccccc3S2(=O)=O)cc1,i
CCCn1c(=O)c2cc(Cl)ccc2n2c(SCC(=O)Nc3cccc(Cl)c3)nnc12,i
CCOc1ccc(N(C(=O)C2CCCCC2)S(=O)(=O)c2ccc3c(c2)n(C)c(=O)n3C)cc1,i
O=C(CCN1CCN(C(=O)OCc2cc(Cl)cc(Cl)c2)CC1)c1ccc2[nH]c(=O)oc2c1,i
O=C(Nc1ccc(Cl)nc1)c1cccn2cncc12,i
C[C@H]1CCCN1C(=O)c1nnc(CNCCCn2ccnc2)n1-c1ccccc1,i
O=C(Cn1nc2n(CCc3ccccc3)c(=O)c3ccccc3n2c1=O)Nc1ccccc1F,i
O=C(/C=C/c1ccc(O)cc1)OCC1=CC2OC(=O)C3=CO[C@@H](O[C@@H]4O[C@H](CO)[C@@H](O)[C@H](O)[C@H]4O)[C@H]1[C@@H]32 (some centres undefined),i
CC(C)[C@@H]1CN(C(=O)c2scc3c2CCCC3)C[C@H]1NS(C)(=O)=O,i
C=C1CC2OC(=O)C(COC)C2C(OC(=O)/C(C)=C\C)CC2(C)OC1=CC2=O (centres undefined),i
O=S(=O)(c1ccccc1)c1nnn2c1nc(N1CCN(c3ccc(F)cc3)CC1)c1ccccc12,i
O=C(NCc1ccc2c(c1)OCO2)c1ccc2c(=O)nc3c(-c4ccc(Cl)cc4)n[nH]n3c2c1,i
CC(C)CC(=O)O[C@@H]1O[C@H](CO)[C@@H](O[C@H]2O[C@H](C)[C@@H](N[C@H]3C=C(CO)[C@@H](O[C@H]4O[C@H](CO)[C@@H](O[C@H]5O[C@H](CO)[C@@H](O[C@H]6O[C@H](CO)[C@@H](O)[C@H](O)[C@H]6O)[C@H](O)[C@H]5O)[C@H](O)[C@H]4O)[C@H](O)[C@H]3O)[C@H](O)[C@H]2O)[C@H](O)[C@H]1O,i
CCc1ccc(CN2C(=O)c3cc(-c4ccc(OC)cc4)nn3CC2(C)C(=O)NCc2ccccc2OC)cc1 (centres undefined),i
CCCn1c(=O)c2ccc(C(=O)NCC(C)C)cc2n2c(=O)n(CC(=O)c3ccc(F)cc3F)nc12,i
O=C(c1cccc(Cl)c1F)N1CCN(Cc2cccc(Nc3nccs3)n2)CC1,?
CCc1cc(CN(C)C(=O)C(c2ccc(C)cc2)N(C)C)on1 (centres undefined),i
O=C(c1ccccc1)N1CCC2(CC1)C(=O)NN=C2c1ccccn1,i
C=C(C)[C@@H]1CC[C@]2(C(=O)O)CC[C@]3(C)[C@H](CCC4[C@@]5(C)CCC(=O)C(C)(C)C5C(O)C[C@]43C)C12 (some centres undefined),i
Cc1cc(CN(C)Cc2ccc(F)cc2)no1,i

# Rewritten bar-delimited: 2 of the compounds above
mol | Methyltransferases
O=C(/C=C/c1ccc(O)cc1)OCC1=CC2OC(=O)C3=CO[C@@H](O[C@@H]4O[C@H](CO)[C@@H](O)[C@H](O)[C@H]4O)[C@H]1[C@@H]32 (some centres undefined) | i
CC(C)[C@@H]1CN(C(=O)c2scc3c2CCCC3)C[C@H]1NS(C)(=O)=O | i

# Returning to the listing, repeating the 7 entries before the break.
SMILES,Methyltransferases
CCc1ccc(CN2C(=O)c3cc(-c4ccc(OC)cc4)nn3CC2(C)C(=O)NCc2ccccc2OC)cc1 (centres undefined),i
CCCn1c(=O)c2ccc(C(=O)NCC(C)C)cc2n2c(=O)n(CC(=O)c3ccc(F)cc3F)nc12,i
O=C(c1cccc(Cl)c1F)N1CCN(Cc2cccc(Nc3nccs3)n2)CC1,?
CCc1cc(CN(C)C(=O)C(c2ccc(C)cc2)N(C)C)on1 (centres undefined),i
O=C(c1ccccc1)N1CCC2(CC1)C(=O)NN=C2c1ccccn1,i
C=C(C)[C@@H]1CC[C@]2(C(=O)O)CC[C@]3(C)[C@H](CCC4[C@@]5(C)CCC(=O)C(C)(C)C5C(O)C[C@]43C)C12 (some centres undefined),i
Cc1cc(CN(C)Cc2ccc(F)cc2)no1,i
CC1(C(=O)NC2CCCCCC2)Cn2c(nc3ccccc32)C(=O)N1CC1CCCO1 (centres undefined),i
CC(=O)Nc1ccc(C(=O)N2CCC3(CC2)CN(C)CCN3C)c(C)c1,i
C/C=C(\C)C(=O)O[C@H]1C=CC(=O)O[C@H]1/C=C/[C@H](O)[C@@H](C)O,i
CN(Cc1ccccc1)C(=O)Cn1c(=O)oc2cc(S(=O)(=O)N3CCCCC3)ccc21,i
Cn1c(CNC(=O)C2(C)CCCCC(=O)N2)nc2ccccc21 (centres undefined),i
COc1ccc(CN2C(=O)CSc3c(c4ccccc4n3C)C2C(=O)NCCCOC(C)C)cc1 (centres undefined),i
CN(c1cc(=O)c2ccnc(-c3cncnc3)c2o1)C1CCOCC1,i
CCCN1C(=O)c2c(C(=O)NCCC(C)C)ncn2CC1(C)C(=O)NCc1ccc(F)cc1 (centres undefined),i
CC(=O)N1CC2(CCCCN2CC2CC2)Cc2ccccc21 (centres undefined),i
CCCn1c(=O)c2ccccc2n2c(SCC(=O)Nc3cccc(Cl)c3)nnc12,i
COC(=O)c1ncn2c1C(=O)N(Cc1cccc(OC)c1OC)C(C)(C(=O)NC1CCCC1)C2 (centres undefined),i
Cc1cc(Cl)ccc1N1C(=O)c2cc(C(C)(C)C)nn2CC1(C)C(=O)NCCC(C)C (centres undefined),i
CN1C(=O)c2cc(C(=O)N3CCN(c4ncccn4)CC3)nn2CC1(C)C(=O)NC1CCCCCC1 (centres undefined),i
C/C(=C\CC/C(C)=C/CC[C@]1(C)CCc2cc(O)cc(C)c2O1)CC/C=C(\C)C(=O)O,+
OC[C@H]1O[C@H](n2cnc3c(N[C@H]4CCC[C@@H]4O)ncnc32)[C@H](O)[C@@H]1O,i
C1CCC(c2noc(COCC3CC3)n2)NC1 (centres undefined),i
COc1ccccc1CNc1nc2c(-c3cccc(Br)c3)nnn2c2ccccc12,i
C=C1CCC2C(C)(C(=O)O)CCCC2(C)C1CCC1=CCOC1=O (centres undefined),i
O=C(C1CCOCC1)N1CCC2(CC1)CC(N1CCCC1)CCO2 (centres undefined),i
CCOC(=O)C1CCN(S(=O)(=O)c2ccc3[nH]c(=O)[nH]c3c2)CC1,i
C[C@H]1[C@H](C)CC[C@]2(C(=O)O)CC[C@]3(C(=O)O)C(=CCC4[C@@]5(C)CC[C@H](O[C@@H]6O[C@@H](C)[C@H](O)[C@@H](O)[C@H]6O)C(C)(C)C5CC[C@]43C)[C@H]12 (some centres undefined),i
CCCN1C(=O)c2cc(C(=O)N3CCN(C4CCCCC4)CC3)nn2CC1(C)C(=O)NC1CCCC1 (centres undefined),i
CCOC(=O)c1cc2n(n1)CC(C)(C(=O)NC1CCCCCC1)N(Cc1ccccc1F)C2=O (centres undefined),i
CCC(=O)N(C1CCOCC1)C1CCN(S(=O)(=O)c2ccc(Cl)c(C)c2)CC1,i
CC1CCC(NC(=O)C2(C)Cn3c(ccc3-c3ccccc3)C(=O)N2Cc2cccc(Cl)c2)CC1 (centres undefined),i

# A different layout for part of the listing above:
CCOC(=O)c1cc2n(n1)CC(C)(C(=O)NC1CCCCCC1)N(Cc1ccccc1F)C2=O (centres undefined)
- Methyltransferases: i

CC1CCC(NC(=O)C2(C)Cn3c(ccc3-c3ccccc3)C(=O)N2Cc2cccc(Cl)c2)CC1 (centres undefined)
- Methyltransferases: i

# The list goes on.
SMILES,Methyltransferases
CNC12CC3C[C@@](C)(C1)C[C@](C)(C3)C2,i
CC(C)Cn1c(=O)c2ccccc2n2c(SCC(=O)NCc3ccccc3Cl)nnc12,i
CCC(C)NC(=O)Cn1nc2n(Cc3ccccc3)c(=O)c3ccc(C(=O)NC(C)C)cc3n2c1=O (centres undefined),i
Cc1cccc(N2CCN(C(=O)Cn3ncc4ccc(Cl)cc43)CC2)c1C,i
O=C(CCn1ccc2cc(S(=O)(=O)N3CCCCC3)ccc21)NCCc1ccc(Cl)cc1,i
COC1CCN(c2cc(-c3ccsc3)nc3c(C)noc23)CC1,+
CN1C(=O)c2cc(C(=O)NCCC3=CCCCC3)nn2CC1(C)C(=O)NC1CCCCCC1 (centres undefined),i
CCC(C)NC(=O)c1ccc2c(=O)n(C)c3nnc(SCC(=O)c4ccc(C)cc4C)n3c2c1 (centres undefined),i
Cn1c(=O)c2c(ncn2Cc2ccc(C(C)(C)C)cc2)n(C)c1=O,i
COc1cccc(CN2C(=O)c3ccc(-c4ccco4)n3CC2(C)C(=O)NCCC(C)C)c1 (centres undefined),i
COc1ccc(CN2C[C@@H](CO)[C@H](c3ccncc3)C2)c(OC)c1,+
COc1ccc(-c2cc3n(n2)CC(C)(C(=O)NCc2ccccc2)N(c2cccc(F)c2)C3=O)cc1 (centres undefined),i
C[C@@]12CC3(S(=O)(=O)O)OC(O1)[C@]1(COC(=O)c4ccccc4)[C@H]3C[C@]21O[C@@H]1O[C@H](CO)[C@@H](O)[C@H](O)[C@H]1O,?
O=C1NCCC[C@@H]1NC(=O)[C@H]1CN(C(=O)c2cccc(F)c2)CCN1C(=O)c1cccs1,i
CCCc1ccc2oc(C(=O)N(C)CCC3CCCCO3)c(C)c2c1 (centres undefined),i
CC1CC(O)C2(OC1=O)OC1C(O)C3C4CCC5CC(OC6OC(CO)C(O)C(O)C6OC6OC(C)C(O)C(O)C6O)CCC5(C)C4CCC3(C)C1C2C (centres undefined),i
Cn1cc(CN2CCCCCNC(=O)[C@@H]3CCC[C@@H]32)c2ccccc21,i
CC(C)CC1(C(=O)OCc2ccc(O[C@@H]3O[C@H](CO)[C@@H](O)[C@H](O)[C@H]3O)cc2)CC(=O)OC(C(=O)O)CC(=O)OCC2OC(O1)C(OC(=O)/C=C/c1ccc(O)cc1)C(O)C2O (some centres undefined),i
COc1ccc(C(=O)N2C(C(=O)N3CCCC3)COC23CCN(C(=O)C2CCC2)CC3)cc1 (centres undefined),i
CC1=C2CC(O)(C(C)(C)O)C(O[C@@H]3O[C@H](CO)[C@@H](O)[C@H](O)[C@H]3O)CC(C)C2CC1=O (some centres undefined),i
O=C1NCCCN1C1CCN(Cc2ccncc2)CC1,i
Cc1cc(C)cc(NC(=O)CSc2nnc3n(Cc4ccccc4)c(=O)c4ccccc4n23)c1,i
COc1ccc(-c2cc3n(n2)CC(C)(C(=O)NCc2ccccc2)N(Cc2ccco2)C3=O)cc1 (centres undefined),i
O=C(CCc1nnc2n(CCc3ccccc3)c(=O)c3ccccc3n12)NCc1ccccn1,i
C=C1C(=O)OC2/C=C(\C)CC/C=C(\C(=O)O)CC/C=C(\C)CCC12 (centres undefined),i

# (list continues)
SMILES,Methyltransferases
CC(C)C1c2cccn2CCN1C(=O)Nc1cccc(Cl)c1 (centres undefined),i
COc1cccc(CN2C(=O)c3cc4sccc4n3CC2(C)C(=O)NC2CCC(C)CC2)c1OC (centres undefined),i
COc1cc(O)c([C@@H](CC(=O)N2CC(C)CC(C)C2)c2ccc3c(c2)OCO3)c(OC)c1 (some centres undefined),?
CCc1cc(=O)n(CC(=O)Nc2ccccc2OC)c(N2CCOCC2)n1,i
COc1cc(/C=C/c2ccccc2)c(C(=O)O)c(O)c1CC=C(C)C,i
CCc1cc2c(cc3n2CC(C)(C(=O)NC2CCCCCC2)N(Cc2ccccn2)C3=O)s1 (centres undefined),i
CCCN1C(=O)c2c(C(=O)NCCc3ccc(Cl)cc3)ncn2CC1(C)C(=O)NC1CCCC1 (centres undefined),i
COc1cccc(CNC(=O)Cn2c(=O)oc3cc(S(=O)(=O)N4CCCC4)ccc32)c1,i
Cc1nc2c3ccccc3n3c(CCCC(=O)N4CCN(c5ccc(F)cc5)CC4)nnc3n2n1,i
COC1CCOC2(CCN(S(=O)(=O)c3c(C)noc3C)CC2)C1 (centres undefined),i
O=C(CCn1ccc2cc(S(=O)(=O)N3CCCC3)ccc21)NCCc1ccco1,i
COC(=O)C1C(c2ccc(O)cc2)C(C(=O)O)C1c1ccc(O)cc1 (centres undefined),i
O=C(c1ccccc1)N1CCC(Oc2cccc(F)c2)(C(=O)O)CC1,i
Cc1cccc(NC(=O)Cn2c(=O)oc3cc(S(=O)(=O)N4CCCC4)ccc32)c1C,i
CCc1ccc(-c2cc3n(n2)CC(C)(C(=O)NC2CCCCC2)N(c2ccc(OC)cc2)C3=O)cc1 (centres undefined),i
CC1(C(=O)NCc2ccccc2)Cn2c(ccc2-c2ccco2)C(=O)N1Cc1ccc2c(c1)OCO2 (centres undefined),i
Cc1ccc(C(=O)N[C@H]2CO[C@H]3[C@@H]2OC[C@@H]3n2cc(-c3ccccc3)nn2)cc1,i
O=C1NC2(CCCN([S+](=O)([O-])c3ccsc3)C2)COc2ccccc21 (centres undefined),i
CC1(C(=O)NC2CCCCCC2)Cn2c(ccc2-c2ccco2)C(=O)N1CCc1ccccc1 (centres undefined),i
O=C(CC[C@H]1NC(=O)c2ccccc2NC1=O)Nc1nnc(C2CC2)s1,i
CC(C)Cn1c(=O)c2ccccc2n2c(=O)n(Cc3ccccc3F)nc12,i
N=C(N)SCCc1cnc[nH]1,i
CC(C)C(=O)O[C@@H]1[C@@H](O)[C@@H](O[C@H]2O[C@H](CO)[C@@H](O)[C@H](O)[C@H]2O)O[C@H](CO)[C@H]1O,i
COc1cc(OC)c(NC(=O)N2CCn3c(C)ccc3C2C(C)C)cc1Cl (centres undefined),i
CC(=O)NCCNc1cc(Cl)nn2c(-c3cccc(S(=O)(=O)N(C)C)c3)c(C)nc12,?
CCN(CC)CCCN1C(=O)c2cc3occc3n2CC1(C)C(=O)NC1CCCCCC1 (centres undefined),i

# Screening data (PubChem BioAssay)
